Screens from PubChem.
GIV Gai3 FP – inhibitors of GIV GBA-motif binding to rat Galpha-i3; AID 1224905; P08753; percent of control (FP), % (concentration not given with the values); Galpha-i3/FITC-GIV peptide fluorescence polarization, 90 min; hits give low values; scaled: aluminum fluoride 0%, vehicle 100%; 210,000 compounds, 0.42% hits;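 active = replicate mean at 85% of control or lower, very high polarization wells dropped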;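 also: wells of about 15 µL received 100 nL stock; the first replicate is given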
Target sequence (P08753 whole entry, looked up): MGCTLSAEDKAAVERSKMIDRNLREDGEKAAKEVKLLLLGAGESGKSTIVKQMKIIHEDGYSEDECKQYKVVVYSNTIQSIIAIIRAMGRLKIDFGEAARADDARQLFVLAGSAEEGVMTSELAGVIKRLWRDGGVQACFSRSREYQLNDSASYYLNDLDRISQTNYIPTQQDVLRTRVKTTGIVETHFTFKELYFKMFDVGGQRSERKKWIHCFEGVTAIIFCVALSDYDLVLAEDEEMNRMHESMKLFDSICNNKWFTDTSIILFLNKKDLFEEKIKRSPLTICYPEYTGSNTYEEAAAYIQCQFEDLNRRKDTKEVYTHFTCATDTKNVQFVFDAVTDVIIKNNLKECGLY
HCMV NEC inh – cytomegalovirus nuclear egress complex inhibition. inhibition, % (no concentration beside the values). HTRF UL50-UL53 interaction, normalized percent inhibition. 190,000 compounds, 0.15% hits;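 active = both replicates at 50% or more, plus weaker picks with an unusually low signal ratio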;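 also: stock transfer was 100 nL into about 20 µL; 0% = negative control wells and 100% = wells with untagged competitor protein; inactives centre near -12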
Sa growth 42C – S. aureus growth inhibition. 170,000 compounds, 0.53% hits. relative growth, % (no concentration beside the values). AID 720641. S. aureus RN4220 growth, OD600, 20 h, 42 °C; hits give low values;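 active = growth at 42 °C up to 50% and 20 or more points under that at 30 °C, or under 10% at both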;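 also: 300 nL library stock went into each well; scaled to the means of positive and negative controls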
Sa growth 42C second temp – also measured in Sa growth 42C; calls as there; relative growth, %; measured here: growth at 30 °C;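 optical density after 20 h as mean of two plates; 100% = untreated growth and lower means inhibition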
Starred values were filed as active, the others as inactive; / = no result given; & = joins results of further samples.

SMILES	GIV Gai3 FP	HCMV NEC inh	Sa growth 42C	Sa growth 42C second temp
Cc1cccc(C)c1OCc1nc2c3cnn(-c4cccc(F)c4)c3ncn2n1	109	-4	113	89
COc1ccccc1Nc1c2c(nc3ccc(NC(=O)c4cccc(OC)c4OC)cc13)CCCC2	99	-32	115	95
O=S(=O)(Nc1ccc(OC(F)(F)F)cc1)c1cccc2nsnc12	97	-3	120	101
CC(C)(CNC(=O)c1cn(-c2ccccc2)nc1-c1ccccc1)N1CCOCC1	/	-39	103	95
CCCc1nc(-c2cc3ccccc3nc2N2CCN(C)CC2)no1	110	-9	/	/
CCOC(=O)c1c(C)[nH]c(C)c1S(=O)(=O)N1CCc2ccccc21	105	11	105	104
CN1C/C(=C/c2cccnc2)C(=O)/C(=C/c2cccnc2)C1	99	6	80	66
COc1ccccc1OCCNC(=O)c1ccc2c3c(cccc13)CC2	/	-14	114	92
O=[N+]([O-])c1cc(-c2nc(-c3ccncc3)no2)ccc1NCc1ccccc1	99	5	104	93
CNC(=O)C1CCC(Cn2c(=O)[nH]c3ccsc3c2=O)CC1 (stereo unspecified)	96	/	103	88
O=C(CSc1ncnc2sc(-c3ccccc3)cc12)c1ccc2c(c1)OCCO2	94	/	106	84
CCCCS(=N)(=O)CC[C@H](N)C(=O)O (stereo partly specified)	106	-12	/	/
O=C(CS(=O)(=O)c1nnnn1C1CCCCC1)Nc1ccc(F)cc1	101	-20	96	83
O=C(Cc1ccc(Cl)cc1)NC1=NCCS1	98	/	121	88
COc1ccccc1CNC(=O)c1ccc(N2CCCC2)c(NC(=O)NCc2ccc(F)cc2)c1	105	/	108	102
Cc1ccccc1C1C=C(c2ccc(F)cc2)Nc2ncnn21 (stereo unspecified)	96	-19	98	86
O=C(Nc1ncc(Cc2ccc(Cl)cc2)s1)c1ccc2c(c1)CC(c1ccccc1)OC2=O (stereo unspecified)	98	-30	99	88
COc1ccc(CNC(=O)c2ccc(NC(=O)N3CCCCc4ccccc43)cc2)c(OC)c1	99	/	104	87
Clc1ccc(Nc2nc3nonc3nc2N2CCOCC2)cc1	107	11	/	/
COc1ccc(-c2n[nH]c(=S)n2Cc2ccccc2)cc1OC	106	4	104	96
CCOc1ccccc1OCC(=O)N(C)Cc1ccc2c(c1)OCCO2	/	-29	84	94
CSc1ccc(CCNS(=O)(=O)c2ccc3c(c2)C(C)(C)C(=O)N3C)cc1	102	/	80	82
O=c1[nH]c2nc3ccccc3n2c2ncccc12	/	-19	86	93
CN(Cc1ccccc1)C(=O)c1cn(C)c2ccc(S(=O)(=O)N3CCCC3)cc2c1=O	107	-21	80	90
CC1(C)Cc2c(sc(N)c2C(=O)O)CO1	108	-16	85	78

The final 2 records of the part before come first, to join the parts.
SMILES	GIV Gai3 FP	HCMV NEC inh	Sa growth 42C	Sa growth 42C second temp
CN(Cc1ccccc1)C(=O)c1cn(C)c2ccc(S(=O)(=O)N3CCCC3)cc2c1=O	107	-21	80	90
CC1(C)Cc2c(sc(N)c2C(=O)O)CO1	108	-16	85	78
Cc1ccc(-n2cnc3ccccc3c2=O)cc1C	104	0	45	9
Cc1cccc2c(=O)cc(C(=O)Nc3nnc(CC(C)C)s3)oc12	98	-26	/	/
COc1ccc2c(c1)CCc1c-2n[nH]c1C(=O)NC1CCCCC1	105	11	/	/
O=C(O)NC(=O)c1ccccc1	/	13	67	86
O=C(NCCCN1CCCC1)c1ccc2c(Cl)c3c(nc2c1)CCCC3	110	-54	104	91
COc1ccc(OCC(=O)N2CCC3(CC2)Nc2cc(OC)ccc2-n2cccc23)cc1	104	-16	/	/
Cc1n[nH]c(C)c1Sc1ccccc1NC(=O)c1ccc(F)cc1	/	-36	111	81
Cc1nn2c3ccccc3nc2n(Cc2ccccc2)c1=O	100	-8	108	101
CCCN1Cc2cccc(C(=O)N3CCN(c4ccc(F)cc4)CC3)c2C1=O	95	0	107	87
COc1ccc(-c2noc(CCCCCNC3CCSC3)n2)cc1 (stereo unspecified)	/	-4	107	102
CCOC(=O)c1sc2ncn(CC(=O)Nc3ccc(OCC)cc3)c(=O)c2c1C	107	-19	88	92
COc1ccc(CCn2c(=O)c3cccnc3n(CC(=O)NCc3ccc(C)cc3)c2=O)cc1OC	99	-19	100	89
COc1ccc(OC)c(CNCCCO)c1	100	-6	91	96
Cc1cn2c(=O)cc(COc3ccccc3NC(=O)c3ccc(C(C)(C)C)cc3)nc2s1	103	1	107	90
CCOC(=O)N1CCN(C(=O)CSc2nnc3[nH]c(=O)cc(-c4ccccc4)n23)CC1	101	-39	74	83
CCCCNC(=O)CSc1nc2cc3c(cc2c(=O)n1CCCC(=O)NCCc1ccc(OC)c(OC)c1)OCO3	105	/	94	98
Cc1ccc2c(c1)c1c3n2CCN(CC(O)CN2CCCC2)C3CCC1 (stereo unspecified)	/	-9	112	94
CCOc1ccccc1NC(=O)CSc1ccccc1Cl	/	-14	88	76
Cc1ccc(S(=O)(=O)N(CCc2ccccc2)CC(=O)Nc2ccc(Br)cc2)cc1	109	10	103	99
Cc1nc(N2CCN(C)CC2)c2c(C)c(C(=O)N3CCN(c4cccc(Cl)c4)CC3)sc2n1	105	-22	/	/
Oc1[nH]c(=S)sc1C=Nc1ccccc1	129	/	53	61
O=C1CC(c2cccc(O)c2)Nc2ccc3ccccc3c21 (stereo unspecified)	101	/	103	63
CCOc1ccc(NC(=O)Cn2c(=O)n(-c3ccccc3)c(=O)c3c4c(sc32)CCCC4)cc1	107	-8	102	90
CC1=CC(C)(C)SC(N)=N1	103	-18	106	81
CCn1c(SCC(=O)Nc2nc(C)cs2)nnc1C(C)Oc1ccccc1 (stereo unspecified)	101	2	113	91

Only GIV Gai3 FP, for 4 of the compounds above:
| Compound | GIV Gai3 FP |
| --- | --- |
| COc1ccc(CCn2c(=O)c3cccnc3n(CC(=O)NCc3ccc(C)cc3)c2=O)cc1OC | 99 |
| COc1ccc(OC)c(CNCCCO)c1 | 100 |
| Cc1cn2c(=O)cc(COc3ccccc3NC(=O)c3ccc(C(C)(C)C)cc3)nc2s1 | 103 |
| CCOC(=O)N1CCN(C(=O)CSc2nnc3[nH]c(=O)cc(-c4ccccc4)n23)CC1 | 101 |

(listing goes on)
SMILES	GIV Gai3 FP	HCMV NEC inh	Sa growth 42C	Sa growth 42C second temp
Cc1c(C(=O)OCc2ccccc2)[nH]c2c1C(=O)CC(c1ccc(Cl)cc1)C2 (stereo unspecified)	104	-6	120	92
CCC(CC)c1nn2c(=O)cc(COc3ccc(NC(=O)c4cccc(C)c4)cc3)nc2s1	111	6	101	93
CCn1c2ccccc2c2cc(NC(=O)C3SC(=Nc4ccc(Cl)cc4)C(C(=O)NCc4ccco4)=C3N)ccc21 (stereo unspecified)	/	0	94	93
O=c1c(=O)n2c(nn1CN1CCOCC1)sc1ccccc12	103	-40	93	83
CC1CCN(S(=O)(=O)c2ccc3c(c2)N(CC(=O)N2CC(C)CC(C)C2)C(=O)CS3)CC1 (stereo unspecified)	102	-10	/	/
Cc1nn(S(=O)(=O)c2ccc(C(C)(C)C)cc2)c(C)c1S(=O)(=O)N1CCCC1	104	-27	/	/
CCN1CCCC1CNC(=O)c1cc(S(=O)(=O)CC)c(N)cc1OC (stereo unspecified)	97	1&-76&-18	96	84
Cc1ccc(S(=O)(=O)N2CCCc3cc(NS(=O)(=O)c4ccc(C)c(C)c4)ccc32)cc1	103	/	80	84
CCOc1cccc(N2C(=O)/C(=C\c3ccc(-c4ccccc4[N+](=O)[O-])o3)C(=O)NC2=S)c1	102	-18	/	/
CCn1cc(/C=C(\NC(=O)c2ccco2)C(=O)N2CCc3ccccc32)c2ccccc21	111	3	104	93
CCOC(=O)c1cccc(NC(=O)n2ncc3cc(Cl)ccc32)c1	109	-5	90	95
COc1ccc(OC)c(CNC(=O)C2CCCN(c3nc4ccccc4o3)C2)c1 (stereo unspecified)	94	-2	92	90
CC(=O)Nc1ccc(-c2nc(-c3ccco3)c(-c3ccco3)[nH]2)cc1	/	-3	109	78
O=C(NCCn1c(-c2ccncc2)nc2cccnc21)Nc1ccc2c(c1)OCCO2	99	8	/	/
CCc1ccc(C(=O)COC(=O)c2cnccn2)cc1	108	7	121	77
CCc1ccc(CNC(=O)c2ccc(Cn3c(=O)c4cccn4c4cccnc43)cc2)cc1	101	/	94	96
O=S1(=O)CCC(N=Cc2ccc(-c3ccc(Cl)cc3)o2)C1 (stereo unspecified)	/	-39	92	103
NC(=O)c1cc2c(ccc3ccccc32)o1	96	-94	75	65
CCOC(=O)NN=C1CCC(c2ccccc2)CC1 (stereo unspecified)	/	-18	87	92
CCCCN(CC)C(=O)Cn1cc2c(n1)-c1c(oc(C(=O)N3CCCC3)c1C)CC2	106	/	108	77
CCC1CN(C(=O)N2CCC(C(=O)NCc3cc(OC)ccc3OC)CC2)c2ccccc2O1 (stereo unspecified)	103	-7	118	86
COc1ccc(-c2cc3ccccc3n2CC(O)CNC(CO)(CO)CO)cc1 (stereo unspecified)	100	-20	86	85
CCCNC(=O)c1ccc(COc2ccc(C(C)(C)C)cc2)o1	108	-6	82	95
Cc1ccc(CC(=O)NCCc2nc(-c3ccc(C)cc3)n[nH]2)cc1	102	-27	/	/
COc1cc(Cl)c(C)cc1NC(=O)Cn1ncc2c1-c1cc(C)ccc1OC2	96	-6	87	89

Additional compounds follow:
SMILES	GIV Gai3 FP	HCMV NEC inh	Sa growth 42C	Sa growth 42C second temp
COc1ccc(CCCc2nnc(SCC(=O)Nc3ccc(C)cc3C)o2)cc1	104	-4	95	98
CCOc1ccccc1NC(=O)CSc1nnc2[nH]c(=O)cc(C)n12	99	/	116	97
Cc1ccc(C)c(N2CCN(c3ncnc4c3nc3n4CCCCC3)CC2)c1	101	/	110	102
OC(CN1CCN(c2ccccn2)CC1)c1ccc2cc[nH]c2c1 (stereo unspecified)	98	-33	/	/
O=C(Nc1ccc2c(c1)COCO2)c1cc2ccccc2oc1=O	107	/	99	99
Cc1ccccc1NC(=O)CSc1nnc(-c2cccs2)o1	99	4	78	95
O=C(NCCc1ccc(C(F)(F)F)cc1)C1CC(=O)N(c2ccc3c(c2)OCCO3)C1 (stereo unspecified)	/	-22	101	89
O=C(c1cnc2ccc(F)cc2c1Nc1ccccc1Cl)N1CCCCC1	102	-16	/	/
CCCNC(=O)Nc1ccc(-c2noc(-c3cccc(N(C)C)c3)n2)cc1	103	-15	/	/
CCOc1ccccc1-n1c(SCC(=O)NCc2ccco2)nc2ccccc2c1=O	/	-22	114	91
CCCCN(C)CCCNC(=O)Cn1ncc2c3ccccc3n(Cc3ccccc3)c2c1=O	112	3	102	89
O=S(=O)(Nc1cccc(C(F)(F)F)c1)c1ccc(NS(=O)(=O)c2ccc3c(c2)OCCO3)cc1	104	-50	92	65
Cc1ccc2nc(/C(C#N)=C/c3ccc(-c4cccc(Cl)c4)o3)[nH]c2c1	243	-51	94	83
O=C(c1ccc2c(c1)N(Cc1ccc(F)cc1)C(=O)c1ccccc1S2=O)N1CCC(Cc2ccccc2)CC1 (stereo unspecified)	106	-10	106	95
COc1cccc(-c2nnc(SCC(=O)N3c4ccccc4Sc4ccccc43)o2)c1	103	-10	38	21
N#CC1=C(N)N(c2ccccc2)NC1(C(F)(F)F)C(F)(F)F	/	-21	87	74
CN(C)CCNc1nsc2ccccc12	/	-26	100	92
Cn1nc(CC(=O)Nc2ccc3c(c2)CCC3)c2ccccc2c1=O	96	9	79	106

Among those listed so far, three contain a tert-butyl group.
SMILES	GIV Gai3 FP	HCMV NEC inh	Sa growth 42C	Sa growth 42C second temp
Cc1cn2c(=O)cc(COc3ccccc3NC(=O)c3ccc(C(C)(C)C)cc3)nc2s1	103	1	107	90
Cc1nn(S(=O)(=O)c2ccc(C(C)(C)C)cc2)c(C)c1S(=O)(=O)N1CCCC1	104	-27	/	/
CCCNC(=O)c1ccc(COc2ccc(C(C)(C)C)cc2)o1	108	-6	82	95

Fetched by compound from the entries so far (2):
SMILES	GIV Gai3 FP	HCMV NEC inh	Sa growth 42C	Sa growth 42C second temp
CCOc1ccccc1NC(=O)CSc1nnc2[nH]c(=O)cc(C)n12	99	/	116	97
Cc1ccc2nc(/C(C#N)=C/c3ccc(-c4cccc(Cl)c4)o3)[nH]c2c1	243	-51	94	83

This is a random part of the collection. Share with any hit: about 0.85%.
